Source: PubChem
HSD17B inh = inhibitors of human HSD17B10 dehydrogenase | Q99714 | recombinant HSD17B10, NADH fluorescence kinetic; many of its hits are not listed in these tables | Potency, µM (titrated, usually from 57.1 µM), for inactives: at the top dose activity change, negative = inhibition, usual class: inhibitors | actives 7.6% (n = 75,000) | AID 893; active means well fitted inhibition curve with a large enough effect; inconclusive means small, poorly fitted or top-dose-only effect; inactive means no such curve, though single readings can be large or run the other way;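 further: the protocol describes HADH2 (HSD17B10) and not the HSD17B4 of the title; nearly all actives have a fitted effect of over 70% in size; most hits overshoot -100% by far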
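Activity followed as NADH fluorescence increase (ex 360, em 450 nm) every 30 seconds for 4 min, using final 90 uM beta-hydroxybutyryl CoA and 1 mM NAD+. Recombinant His-tagged enzyme, 20 nM, pH 9.0 Tris buffer, 15 min compound preincubation.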
* hit, by the source's call; u = inconclusive; [ ] = dose if it differs, or a comment. On the % scale 0 is the no-effect control and ±100 the full control effect; potency means the concentration at half of the fitted maximal effect. A portion of the library, so the mix of outcomes need not match the whole.

The first 15 records as a preview:
SMILES	HSD17B inh
O=C(Nc1ccc2c(c1)OCO2)c1ccc(Br)s1	5%
COC(=O)c1ccccc1NC(NC(=O)c1ccco1)C(=O)c1ccccc1 (stereo unspecified)	-22%
COc1ccc(C(=O)N2CCC[C@@]3(CCN(Cc4ccncc4)C3)C2)cc1	-1%
COc1cc(=O)n(C)c2c(OCC(O)C(C)(C)O)cccc12 (stereo unspecified)	-3%
COc1ccccc1NC(=O)CCN1C(=O)C2CC=C(Cl)CC2C1=O (stereo unspecified)	-9%
O=S(=O)(Nc1ccc(F)cc1)N1CCCCCC1	-11%
O=C(O)CC1=C(O)C(=O)N(c2ccccc2)C1c1ccccc1 (stereo unspecified)	-6%
COC(=O)CC1=C(C)C(=O)CC2C(C)(C)CCCC12C (stereo unspecified)	-8%
CCOc1ccc(OCC)c(NC(=O)CN(C)S(=O)(=O)c2cccc3nsnc23)c1	7%
COc1cccc(C2C(C(=O)c3cc4ccccc4o3)=C(O)C(=O)N2c2cc(C)on2)c1OC (stereo unspecified)	-15%
CC(C)CC(NS(=O)(=O)c1ccc2c(c1)oc(=O)n2C)C(=O)NCc1cccnc1 (stereo unspecified)	6%
Cc1cc(NS(=O)(=O)c2ccccc2)c(C)c(Cl)c1O	u
CC(NC(=O)Cc1cccs1)C(c1cccs1)N1CCN(c2ccccc2F)CC1 (stereo unspecified)	2%
CCCC(=O)Nc1cc(C)c(NC(=O)c2ccccn2)cn1	4%
Cn1c(=O)c2c(nc(NCCc3ccccc3)n2Cc2ccccc2)n(C)c1=O	32µM*

The whole of this part, from the first entry:
SMILES	HSD17B inh
O=C(Nc1ccc2c(c1)OCO2)c1ccc(Br)s1	5%
COC(=O)c1ccccc1NC(NC(=O)c1ccco1)C(=O)c1ccccc1 (stereo unspecified)	-22%
COc1ccc(C(=O)N2CCC[C@@]3(CCN(Cc4ccncc4)C3)C2)cc1	-1%
COc1cc(=O)n(C)c2c(OCC(O)C(C)(C)O)cccc12 (stereo unspecified)	-3%
COc1ccccc1NC(=O)CCN1C(=O)C2CC=C(Cl)CC2C1=O (stereo unspecified)	-9%
O=S(=O)(Nc1ccc(F)cc1)N1CCCCCC1	-11%
O=C(O)CC1=C(O)C(=O)N(c2ccccc2)C1c1ccccc1 (stereo unspecified)	-6%
COC(=O)CC1=C(C)C(=O)CC2C(C)(C)CCCC12C (stereo unspecified)	-8%
CCOc1ccc(OCC)c(NC(=O)CN(C)S(=O)(=O)c2cccc3nsnc23)c1	7%
COc1cccc(C2C(C(=O)c3cc4ccccc4o3)=C(O)C(=O)N2c2cc(C)on2)c1OC (stereo unspecified)	-15%
CC(C)CC(NS(=O)(=O)c1ccc2c(c1)oc(=O)n2C)C(=O)NCc1cccnc1 (stereo unspecified)	6%
Cc1cc(NS(=O)(=O)c2ccccc2)c(C)c(Cl)c1O	u
CC(NC(=O)Cc1cccs1)C(c1cccs1)N1CCN(c2ccccc2F)CC1 (stereo unspecified)	2%
CCCC(=O)Nc1cc(C)c(NC(=O)c2ccccn2)cn1	4%
Cn1c(=O)c2c(nc(NCCc3ccccc3)n2Cc2ccccc2)n(C)c1=O	32µM*
c1ccc2c(c1)OCC(c1nnc3n1-c1ccccc1SC3)O2 (stereo unspecified)	-1%
O=C(N1CCOCC1)N1CCOCC1	16%
O=C(CSc1nnc(COc2ccccc2)n1-c1ccccc1)c1cccs1	-6%
CC(C)CSc1nnc2[nH]c(=O)cc(N)n12	2%
COCC(=O)/C=C1\Sc2ccccc2N1C	-14%
OC(CNc1nc2ccccc2s1)c1ccccc1 (stereo unspecified)	-3%
CC(C)(C)NC(=O)CN(Cc1cccnc1)C(=O)c1csnn1	-4%
Cc1cc(C)nc(N2CCCC(C(=O)NCCc3cccc(F)c3)C2)n1 (stereo unspecified)	-11%
C[C@H](NCCC(c1ccccc1)c1ccccc1)c1ccccc1	-8%[25.6 µM]
Cc1ccc(SC(C)C(=O)Nc2ncn[nH]2)cc1 (stereo unspecified)	0%
C=C[C@]1(C)C[C@H](OC(=O)CO)[C@]2(C)C3C(=O)CC[C@]3(CC[C@H]2C)[C@H](C)[C@H]1O (stereo partly specified)	10%[11.4 µM]
CC(C)(C)n1nnnc1CN1CCC(NC(=O)NC2CCCCC2)CC1	3%
CCc1nn(CCCC(=O)N2CCc3ccccc3C2)c(=O)c2cc3occc3n12	-10%
O=C1CC(=O)N(CCc2ccccc2)C(=O)N1CCc1ccccc1	u
Cc1c(C(=O)N2CCOCC2)[nH]c2c1C(=O)CC(c1ccc(Cl)cc1)C2 (stereo unspecified)	u
COc1cccc(-c2cc(C(F)(F)F)nc(NCc3ccco3)n2)c1	25µM*
C=CCOc1ccc(CN(C)CC(=O)N(CC(C)C)c2c(N)n(CC(C)C)c(=O)[nH]c2=O)cc1	-4%
Cc1ccc(C)c2[nH]c(=O)c(CN(Cc3nnnn3C3CCCCC3)CC3CCCO3)cc12 (stereo unspecified)	-5%
CCc1ccc(OCC(=O)NCCN(C)C)c(Br)c1	3%
O=C(Cc1cn2ccsc2n1)NCCc1ccc(F)cc1	-2%
O=C(Nc1ccc2nc3n(c(=O)c2c1)CCCCC3)c1ccccn1	-2%
COCCCNC(=O)C(Cc1ccccc1)NS(=O)(=O)c1ccc2c(c1)c(=O)n(C)c(=O)n2C (stereo unspecified)	-6%
O=C(Nc1ccccc1O)c1cc(S(=O)(=O)N2CCOCC2)c(Cl)cc1Cl	-3%
CCOc1ccc(C(C)=O)cc1COC(=O)C1=COCCO1	-1%
COc1ccccc1NC=C1C(=O)OC2(CCCCC2)OC1=O	-11%
[O-][n+]1c2ccc3nonc3c2nn1-c1ccccc1Cl	u
CC(C)=CCCC(C)CN(C)CCc1ccccn1 (stereo unspecified)	-4%
N#C/C(=C\c1ccc(O)c(O)c1)C(=O)Nc1ccccc1	u
C=C(C)c1cccc(C(C)(C)NC(=O)NCC2CCCO2)c1 (stereo unspecified)	5%
COC(=O)c1sccc1NC(=O)c1csc(C)c1	-9%
O=c1cc(NC2CCCCCC2)[nH]c(=O)[nH]1	6%
CCOc1ccc2nc(-c3ccc(OC)c(OC)c3)cc(C(=O)O)c2c1	u
COc1ccc(CNC(=O)COC(=O)c2n[nH]c3ccccc23)cc1	-26%
CCOC(=O)c1ccc(NC(=O)Cn2nnc(-c3ccccc3C)n2)cc1	-10%
Cc1cc(C(N)=O)c2ccccc2n1	4%
NC(=O)C1CCN(C(=O)CSc2nc3c(c(-c4ccccc4)n2)CCCC3)CC1	-3%
O=C(c1ccc(=O)[nH]c1)N(Cc1ccco1)C1(C(=O)NC2CCCCC2)CCCCC1	2%
O=S(=O)(c1ccccc1)N1CCC2(CC1)CN(C(c1ccccc1)c1ccccc1)C2	-1%
CN(Cc1cccs1)S(=O)(=O)c1cccs1	-2%
COc1ccc(C#CC2C=CC(Oc3cc(C)cc(C)c3)C(CO)O2)cc1 (stereo unspecified)	-2%[11.4 µM]
COc1ccc(C)cc1NC(=O)CSc1nnc(-c2ccco2)n1Cc1ccco1	2%
Cc1ccccc1Nc1nn2c(=O)c3ccccc3nc2s1	-2%
O=C(O)c1ccc(OCc2occc2C(=O)O)cc1	-2%
CCc1ccc(NC(=O)c2ccc3c(c2)C(=O)N(Cc2ccco2)C3=O)cc1	u
C=CCn1c(SCC(=O)NCC(=O)OCC)nnc1-c1ccccn1	7%

(further entries)
SMILES	HSD17B inh
Cc1c(C(=O)NCCc2ccccc2)oc2ccc(S(=O)(=O)N3CCC4(CC3)OCCO4)cc12	-3%
C[C@H]1O[C@@H](CC(=O)O)Cc2c1c(O)c1c(O)cc(-c3cc(=O)c4c(=O)c5c(c(=O)c=4c3=O)C[C@H](CC(=O)O)O[C@@H]5C)c(O)c1c2O	4µM*
CC1=CC(C)C2C(=O)N(CCC[N+](C)(C)C)C(=O)C2C1 (stereo unspecified)	20%
CN1CCc2cc3c(cc2C(=O)Cc2ccc4c(c2C1)OCO4)OCO3	-8%
CCSc1nc(=O)n(-c2ccccc2)c(C)c1C(C)=O	5%
Cc1ccc(-c2nc3cc(N)ccc3o2)c(C)c1	2%
O=C(COc1ccc(Cl)cc1)N1CCN(c2ncccn2)CC1	3%
Cc1cc(O)c(C(C)C)cc1NC(=O)Cn1nc(C)c2ccccc2c1=O	2%
Cc1occc1-c1nnc(SCC(=O)NC(C)(C)C)n1C(C)c1ccccc1 (stereo unspecified)	12%
COc1ccc(CNc2ncncc2-c2c(C)noc2C)c(OC)c1	0%
O=Cc1ccc(Cl)c(Cl)c1	2%
COc1ccc(S(=O)(=O)CCC(=O)NCCc2ccc(S(N)(=O)=O)cc2)cc1	10%
Cn1c2c(c(=O)n(C)c1=O)C(c1cc3c(cc1Br)OCO3)CC(=O)N2 (stereo unspecified)	4%
O=C(O)c1ccc2c(c1)C(=O)N(CCC1=CCCCC1)C2=O	1%
Cc1cccc2cc(CN(CCN3CCOCC3)C(=O)NCc3ccccc3)c(=O)[nH]c12	2%
O=S(=O)(c1ccccc1)N1CCC2(CCCN(C(c3ccccc3)c3ccccc3)C2)CC1	5%
O=C(COc1ccc(Cl)cc1)NCc1nnc(SCC(=O)Nc2ccc3c(c2)OCCO3)o1	2%
Cc1cccc(C)c1Nc1nnc(SCC(=O)NCc2ccco2)s1	-3%
CC(=O)N1CN(C2CCS(=O)(=O)C2)Cc2c1sc1c2CCCC1 (stereo unspecified)	-1%
CNC(=O)CSc1nnc(-c2cccc(S(=O)(=O)N3CCOCC3)c2)n1-c1ccc(F)cc1	-8%
Cc1cc(NC(=O)c2cnn3c(C(F)(F)F)cc(-c4ccccc4)nc23)no1	u
O=C(c1ccc2nccnc2c1)N1CCN(Cc2ccc3c(c2)OCO3)CC1	9%
c1csc(CNc2ncnc3nc[nH]c23)c1	3%
O=C(c1ccc(Br)o1)N1CCN(c2ccc(F)cc2)CC1	-7%
CN(C)CCCN1C(=O)C(=O)/C(=C(/O)c2ccc(S(=O)(=O)N(C)C)cc2)C1c1ccncc1 (stereo unspecified)	10%
COc1cccc(-c2cc3nc4c(c(N5CCC6(CC5)OCCO6)n3n2)CCCC4)c1	u
CCC1=C2CC[C@H]3C(=O)N(CC(=O)OC)C(=O)[C@H]3[C@H]2[C@@]2(C)C(=NCCc3c[nH]c4ccccc34)OC(=O)N2C1=O	-8%
CCC(C(=O)OC)n1cnc2c(cnn2-c2ccc(Cl)cc2)c1=O (stereo unspecified)	-12%
CC(=O)Nc1ccc(S(=O)(=O)c2ccc(N)cc2)cc1	6%
O=C(CSc1nnnn1C1CCCCC1)Nc1cccc(NC(=O)c2ccco2)c1	5%
COc1cc(OC)c(OC)cc1CN(C)CCc1ccccn1	-6%
COc1cccc(C(=O)COC(=O)C(C)N2C(=O)c3ccccc3C2=O)c1 (stereo unspecified)	7%
COc1ccc(N2CCN(c3nc4c(c(=O)n(C)c(=O)n4C)n3CCCc3ccccc3)CC2)cc1	-4%
Cc1noc(C)c1COC(=O)CN(C)S(=O)(=O)c1ccc(Cl)cc1	11%
COC(=O)[C@@]1(Cc2ccc(F)cc2)[C@H]2c3cc(C(=O)N4CCCC4)n(Cc4cccc5ccccc45)c3C[C@H]2CN1C(=O)c1ccccc1	13%
O=C1CC(N2CCN(Cc3ccccc3)CC2)C(=O)N1CCc1ccccc1 (stereo unspecified)	-8%
Cn1c(SCc2c(Cl)cccc2Cl)nnc1-c1cccs1	5%
CNS(=O)(=O)c1ccc(Oc2ccc(S(=O)(=O)NC)cc2)cc1	-2%
CC(C)(C)NC(=O)Cn1nnc(-c2cccs2)n1	20µM*
CCCc1nc(SCC(=O)N2CCCc3ccccc32)c2c(=O)n(C)c(=O)n(C)c2n1	3%
COc1ccc2[nH]c(C)c(CCN3C(=O)C4CC=CCC4C3=O)c2c1 (stereo unspecified)	1%
O=C(CCN1C(=O)c2ccccc2C1=O)N1CCN(Cc2ccccc2)CC1	14%
O=C(Nc1ccccc1)N1CCC2(CC1)CCN(C(=O)c1ccco1)CC2	4%
COc1ccccc1OCC(=O)c1[nH]c(C)c(C(C)=O)c1C	-1%
CCOc1ccccc1C(=O)N(C)Cc1cc2cc(OC)ccc2[nH]c1=O	25µM*
CC(SCC(=O)Nc1ccc(S(=O)(=O)N2CCCCC2)cc1)C(=O)O (stereo unspecified)	9%
CCOc1ccc2nc(N3CCCC(C(=O)NCCCN4CCOCC4)C3)sc2c1 (stereo unspecified)	1%
N#CCCn1cc(C(CC(=O)c2ccc(Br)cc2)C(=O)O)c2ccccc21 (stereo unspecified)	u
NCCCCCCNS(=O)(=O)c1ccc2c(Cl)cccc2c1	-2%
CC(C)[C@H](NC(=O)NCCc1ccc(Cl)cc1)C(=O)O	5%
c1ccc2c(c1)oc1c(N3CCOCC3)ncnc12	2%
COc1ccc(N2CCN(C(=O)C(OC(C)=O)c3ccccc3)CC2)cc1 (stereo unspecified)	-4%
COc1nc(NC23CC4CC(CC(C4)C2)C3)nc(OC)n1	1%
O=C1c2ccccc2C(=O)c2c(NC3CCCCC3)ccc(Nc3ccc(S(=O)(=O)O)cc3)c21	3.2µM*
Oc1ccc(Cn2c(-c3ccc(O)cc3)nc3ccccc32)cc1	0%[11.4 µM]
O=C1Nc2ccccc2C12OCCS2 (stereo unspecified)	-2%
COC(=O)c1sc(=S)sc1C(=O)OC	-14%
CC(=O)N(C[C@@H](C)C(=O)O)c1c(I)cc(I)c(N)c1I	4%[25.6 µM]
CCOc1cccc(NC(=O)C2CC(=O)N(C)C2)c1 (stereo unspecified)	1%
